Bfl-1 A1 inh = caspase 3/7 activation in MEF A1-2A-BIM cells, primary screen, A1 inhibitor project, cell-based, luminescence, HTS | Caspase-Glo 3/7 luminescence, 3 h; percent of clofoctol response, vehicle zero | caspase activation, % (test concentration not listed) | 0.066% of 330,000 active | AID 2462, 2010;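 active = over half of replicate activation scores above 10%, or exactly half above 10 with the replicate mean above 10; inconclusive = replicate mean below 10 yet half the replicates above 10; inactive = over half of replicates below 10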;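 also: wells of about 30 µL received 50 nL stock; many hits fall short of the cut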
LANA-H2B inh = blockers of LANA interaction with H2A/H2B – biochemical, FP readout, HTS, primary screen; cell-free LANA-H2A/H2B peptide, fluorescence polarization; inhibition, % (concentration not given with the values); AID 2629, 2010; 0.6% of 320,000 active; Protein LANA1 (Human herpesvirus 8 type P (isolate GK18)), Q9QR71; in the data active = inhibition mostly above about 10%, no sharp cut-off; inactive = mostly below about 6.7%;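 also: stock transfer was 7.5 nL into about 10 µL; 0% = median of vehicle wells and 100% = median of positive control wells; one replicate is shown; the record names a cut of 25% in any replicate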
Target sequence (Q9QR71 whole entry, looked up): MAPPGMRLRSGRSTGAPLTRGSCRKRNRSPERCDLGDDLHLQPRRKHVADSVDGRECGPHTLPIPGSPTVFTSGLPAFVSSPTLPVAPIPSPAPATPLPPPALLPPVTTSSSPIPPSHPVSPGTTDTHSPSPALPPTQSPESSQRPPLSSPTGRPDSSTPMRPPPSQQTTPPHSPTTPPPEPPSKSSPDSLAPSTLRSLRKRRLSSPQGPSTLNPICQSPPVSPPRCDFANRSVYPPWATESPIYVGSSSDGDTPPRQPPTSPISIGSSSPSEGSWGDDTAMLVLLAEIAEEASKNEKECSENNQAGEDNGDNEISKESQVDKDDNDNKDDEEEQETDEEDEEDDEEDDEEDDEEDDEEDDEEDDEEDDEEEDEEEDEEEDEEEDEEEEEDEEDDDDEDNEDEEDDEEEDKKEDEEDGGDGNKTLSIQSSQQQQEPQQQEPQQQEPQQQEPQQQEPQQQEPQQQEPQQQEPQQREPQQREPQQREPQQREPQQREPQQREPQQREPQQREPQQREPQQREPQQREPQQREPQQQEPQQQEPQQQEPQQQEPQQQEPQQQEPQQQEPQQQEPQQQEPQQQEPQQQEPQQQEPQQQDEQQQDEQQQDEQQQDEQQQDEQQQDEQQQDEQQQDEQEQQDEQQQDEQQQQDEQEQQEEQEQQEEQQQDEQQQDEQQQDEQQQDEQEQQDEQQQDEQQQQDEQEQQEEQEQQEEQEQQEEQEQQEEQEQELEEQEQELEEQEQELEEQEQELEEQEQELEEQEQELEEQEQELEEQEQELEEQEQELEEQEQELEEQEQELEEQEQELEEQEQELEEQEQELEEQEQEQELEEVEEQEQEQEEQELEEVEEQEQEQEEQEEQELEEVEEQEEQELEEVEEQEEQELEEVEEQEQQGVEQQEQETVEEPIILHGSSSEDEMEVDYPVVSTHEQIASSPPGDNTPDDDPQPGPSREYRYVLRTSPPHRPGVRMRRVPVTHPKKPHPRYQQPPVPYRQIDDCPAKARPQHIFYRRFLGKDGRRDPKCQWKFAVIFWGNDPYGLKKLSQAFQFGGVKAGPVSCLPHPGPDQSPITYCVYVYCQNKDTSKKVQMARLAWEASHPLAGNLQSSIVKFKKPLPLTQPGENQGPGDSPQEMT
Numbers without * were called inactive; ? = inconclusive.

SMILES	Bfl-1 A1 inh	LANA-H2B inh
c1ccc(CCCOCCC2CO2)cc1 (stereo not given)	1.3	8.1
Cc1ccc2c(=O)n3c(nc2c1)C(CC(C)C)NC(=O)c1ccc(Cl)cc1-3 (stereo not given)	-0.7	-1.9
O=C1N[C@H](C(=O)O)CS1	0.5	-1.5
CC(C(=O)Nc1ccccc1F)N1CCN(C)CC1 (stereo not given)	-0.4	-0.6
COc1ccccc1N1C(=O)C2ON(c3ccccc3)C(c3ccc(N(C)C)cc3)C2C1=O (stereo not given)	0.4	3.6
COC(=O)C[C@](O)(CCCC(C)(C)O)C(=O)O[C@@H]1C(OC)=C[C@]23CCCN2CCc2cc4c(cc2[C@H]13)OCO4	?	-13.1
N=C1c2ccccc2CN1c1ccc(N2CCOCC2)c(S(=O)(=O)Nc2ccc(Cl)cc2)c1	1.4	-1.9
COc1ccc(/C(C)=N\NC(=O)c2ccc3c(c2)OCO3)cc1OC	1.1	-1.9
COC/C=C/C1=CC2=CC(=O)C(C)(OC(=O)c3cnc4ccccc4n3)C(=O)C2=CO1 (stereo not given)	-0.1	-0.7
CC1(C)S[C@@H]2[C@H](N=CN3CCCCCC3)C(=O)N2[C@H]1C(=O)O	1.3	1.1
CC(C)C1=CC2=CCC3C(C)(C(=O)O)CCCC3(C)C2CC1 (stereo not given) (tested in a mixture with another compound)	0.0	0.2
O=C1c2ccccc2S(=O)(=O)c2cc(N3CCc4ccccc4C3)ccc21	-1.4	-1.0
COc1cccc(C(=O)CC(=O)C(=O)Nc2cc(OC)c(OC)c(OC)c2)c1	-0.2	-4.0
O=C(CN1C(=O)c2ccccc2C1=O)Oc1ccc(F)cc1	0.8	-0.8
CC(C)(C)C1=CC=C(C(C)(C)C)C(=O)C1=O	6.4*	-4.1
C=C1/C(=C\C=C2/CCC[C@]3(C)[C@@H]([C@H](C)/C=C/[C@@H](O)C4CC4)CC[C@@H]23)C[C@@H](O)C[C@@H]1O	-0.2	-0.6
O=C1CSC(=S)N1c1ccc(F)cc1	0.9	-2.6
Cc1ccc2c(c1)-n1c(nc3cc(Cl)ccc3c1=O)C(CC(C)C)NC2=O (stereo not given)	0.7	-3.4
Cc1cc(/C=C(\C#N)c2nnc(N3CCOCC3)n2-c2ccccc2)c(C)n1-c1ccccc1	-0.2	7.7
O=S1(=O)CCOCCN1Cc1ccc(Cl)cc1Cl	1.3	-1.5
NC(=O)N=Nc1c(O)[nH]c2c(Br)cc(Br)cc12	0.0	-7.3
Cc1ccc(S(=O)(=O)N(C)S(=O)(=O)c2ccc(C#N)cc2)cc1	0.1	2.3
CC1(O)C(=O)C=C2C=C(c3ccsc3)OC=C2C1=O (stereo not given)	-0.4	0.3
CCS(=O)(=O)C1=NN2C(=N)/C(=C\c3ccc(OC(=O)c4ccco4)c(Br)c3)C(=O)N=C2S1	-2.9	-1.7
CC(C)(C)c1ccc(/C=N/NC(=S)Nc2cccnc2)cc1	-0.2	-3.1

Bfl-1 A1 inh, entries above that show a hit
SMILES	Bfl-1 A1 inh	LANA-H2B inh
CC(C)(C)C1=CC=C(C(C)(C)C)C(=O)C1=O	6.4*	-4.1

Compounds above containing a tert-butyl group (two):
SMILES	Bfl-1 A1 inh	LANA-H2B inh
CC(C)(C)C1=CC=C(C(C)(C)C)C(=O)C1=O	6.4*	-4.1
CC(C)(C)c1ccc(/C=N/NC(=S)Nc2cccnc2)cc1	-0.2	-3.1

More structures
SMILES	Bfl-1 A1 inh	LANA-H2B inh
O=C(CC(=O)NC1CCCCC1)N/N=C/c1ccccc1F	-0.1	2.1
COc1ccc(-c2cnnc(N/N=C/C(C)=C/c3ccccc3)n2)cc1	1.2	-4.6
CN(C)c1ccc(CNc2nc3ccccc3s2)cc1	-9.8	-3.7
O=C(N/N=C1/CCCc2ccccc21)c1cc([N+](=O)[O-])cc([N+](=O)[O-])c1	0.3	-0.1
O=C1NC(Cc2ccccc2)c2nc3ccccc3c(=O)n2-c2cc(Cl)ccc21 (stereo not given)	0.9	-1.1
COc1ccc2nc3n(c(=O)c2c1)-c1ccccc1C(=O)NC3Cc1ccccc1 (stereo not given)	0.8	-3.3
O=C(Nc1ccccc1)O[C@@H]1C[C@H]2CCC(=O)N3CC[C@@H](C1)[C@@H]23	-5.3	0.5
COc1ccc2c(c1)C=Cc1ccccc1O2	0.2	5.6
CCN(CC)CCOC(=O)c1ccc(NC(=S)NC(=O)/C=C/c2ccco2)cc1	0.8	-6.6
Cc1ccc2c(c1)-n1c(nc3cc(F)ccc3c1=O)C(Cc1ccc(O)cc1)NC2=O (stereo not given)	-0.1	0.2
CCCC[C@@H]1CNC(=O)C(=O)N1CCc1cccc2ccccc12	-0.1	5.6
CC[N+](C)(CC)CCC[n+]1c(-c2ccccc2)c2cc(N)ccc2c2ccc(N)cc21	2.9	37.0*
O=S(=O)(O)c1nc2ccccc2n1Cc1cccc2ccccc12	1.7	-2.4
Cc1noc(C(=O)Nc2ccc(Cl)cc2)c1Cl	0.1	-3.2
O=C(CC(Sc1ccc(Br)cc1)C(=O)O)c1ccc(Br)cc1 (stereo not given)	-0.1	0.8
CC1(OC(=O)c2cnc3ccccc3n2)C(=O)C=C2C=C(C3CC3)OC=C2C1=O (stereo not given)	1.2	11.1
Oc1cccc(O)c1O	-0.1	-7.1
O=c1[nH]cc(N=Cc2cc([N+](=O)[O-])ccc2O)c(=O)[nH]1	0.4	4.1
COc1ccc2nc3n(c(=O)c2c1)-c1ccc(Cl)cc1C(=O)NC3Cc1ccccc1 (stereo not given)	-0.1	8.8
C=C1[C@@H](O)[C@@H]2O[C@]3(CC[C@H](/C=C/[C@@H](C)[C@@H]4CC(C)=CC5(O[C@H](C[C@@](C)(O)C(=O)OC)CC[C@H]5O)O4)O3)CC[C@H]2O[C@@H]1[C@@H](O)C[C@H](C)[C@H]1OC2(CCCCO2)CC[C@H]1C (stereo not given in full)	-2.0	0.5
CN1CCN(C(c2ccc(C(F)(F)F)cc2)c2ccc3cccnc3c2O)CC1 (stereo not given)	0.3	-2.9
COc1ccc(CNC(=O)C/C(C)=N/NC(=O)c2cc(OC)cc(OC)c2)cc1	0.1	-2.3
COC(=O)CCC(=O)OC1(C)C(=O)C2=CN(CCN3CCOCC3)C(c3ccc(OC)cc3)=CC2=C(Br)C1=O (stereo not given)	0.2	1.0
COc1cc2c(cc1OC)C(Cc1ccc(O)c(Oc3ccc(C[C@H]4c5cc(OC)c(OC)cc5CCN4C)cc3)c1)N(C)CC2 (stereo not given in full)	1.6	-2.8
Cn1c(=O)c(C(=O)COC(=O)c2cc(C(F)(F)F)nc3c(C(F)(F)F)cccc23)c(N)n(CC2CC2)c1=O	-0.2	1.3

4 entries already listed, arranged by the number in LANA-H2B inh, rising.
canonical_smiles,Bfl-1 A1 inh,LANA-H2B inh
COc1cc2c(cc1OC)C(Cc1ccc(O)c(Oc3ccc(C[C@H]4c5cc(OC)c(OC)cc5CCN4C)cc3)c1)N(C)CC2 (stereo not given in full),1.6,-2.8
CCCC[C@@H]1CNC(=O)C(=O)N1CCc1cccc2ccccc12,-0.1,5.6
COc1ccc2nc3n(c(=O)c2c1)-c1ccc(Cl)cc1C(=O)NC3Cc1ccccc1 (stereo not given),-0.1,8.8
CC[N+](C)(CC)CCC[n+]1c(-c2ccccc2)c2cc(N)ccc2c2ccc(N)cc21,2.9,37.0*

New compounds follow.
SMILES	Bfl-1 A1 inh	LANA-H2B inh
O=C1NC(Cc2ccccc2)c2nc3cc(F)ccc3c(=O)n2-c2cc(Cl)ccc21 (stereo not given)	-0.4	6.9
O=C(Cn1nnc2ccccc21)OCC(=O)c1ccc(Cl)cc1	0.2	3.3
CC(C)(C)c1cc(O)c(C(C)(C)C)cc1O	-0.2	-2.4
C/C(=N\NC(=O)c1ccc2nc[nH]c2c1)c1ccc([N+](=O)[O-])cc1	1.5	-0.1
CC1(C)C(=O)CC[C@@]2(C)[C@H]1CC[C@@]1(C)CC3=C(CC[C@@H]12)[C@@]1(C)CCC(=O)C(C)(C)[C@@H]1CC3	1.4	0.4
COc1ccc(/C(C)=N/Nc2cc(C(F)(F)F)ccc2Cl)c(OC)c1	1.5	-0.8
COc1ccc(N2CCN(C(=O)c3ccc4c(c3)NC(=O)C(CSCc3c(F)cccc3Cl)N4)CC2)cc1 (stereo not given)	-1.4	1.7
COc1cc(/C=C2/C(=N)N3C(=NC2=O)SN=C3S(=O)(=O)C(C)C)ccc1OS(=O)(=O)c1ccccc1	-0.3	-4.6
O=c1ccc2ccc(Oc3ccc([N+](=O)[O-])cc3[N+](=O)[O-])cc2o1	-0.6	0.3
O=C(O)CCC1c2cc3c4cc2OC2Oc5cc6c(cc51)C(CCC(=O)O)c1cc5c7cc1OC(O6)c1cc6cc(c1)Oc1cc(cc(C(=O)O)c1)Oc1cc8cc(c1)C(Oc1cc(c(cc1C5CCC(=O)O)C3CCC(=O)O)OC(O4)c1cc(cc(c1)Oc1cc(cc(C(=O)O)c1)O8)Oc1cc(cc(C(=O)O)c1)Oc1cc(cc2c1)Oc1cc(cc(C(=O)O)c1)O6)O7 (stereo not given)	0.3	-2.7
C/C(=N\NC(=O)c1ccc(NS(=O)(=O)c2cccs2)cc1)c1ccccn1	-0.1	1.6
O=[N+]([O-])c1ccccc1S(=O)(=O)Nc1cccc2cccnc12	-0.5	-2.6
COc1ccc(/C=N/n2cnc3c([nH]c4ccccc43)c2=O)cc1COc1ccccn1	1.2	-0.6
COC(=O)CCCC1=CC2=CC(=O)C(C)(OC(=O)c3cccs3)C(=O)C2=CO1 (stereo not given)	-1.3	8.0
O=C(NCCN1C(=O)S/C(=C\c2cccs2)C1=O)c1ccc(=O)[nH]c1	0.1	-2.9
COc1cc(/C=C2/C(=N)N3C(=NC2=O)SN=C3S(C)(=O)=O)ccc1OS(=O)(=O)c1ccccc1	-0.4	-3.4
CCCN1CCC(NC23CC4CC(CC(C4)C2)C3)CC1	0.0	-2.2
CC(=O)OC[C@]12CC[C@H]3[C@@](C)(CC[C@H]4C(C)(C)CCC[C@]34C)[C@@H]1C[C@@H](C1=CC(=O)O[C@@H]1OC(C)=O)O2	?	-7.1
CC1(OC(=O)c2ccc(Cl)nc2)C(=O)C=C2C=C(c3ccc(C#N)cc3)OC=C2C1=O (stereo not given)	-6.9	-10.3
c1ccc(COc2ccc(-c3sc(Nc4ccccc4)n[n+]3-c3ccccc3)cc2)cc1	-0.5	3.8
CC(C)(C)C1CC=C2C(C#N)=C(N)C(C#N)(C#N)C(c3cccs3)C2C1 (stereo not given)	-1.3	1.1
COCCNc1nc(-c2cc(C(=O)Nc3ccccc3)on2)cc(C(C)C)n1	0.8	-1.9
COC(=O)c1ccc(CSCc2ccc(C#N)cc2)cc1	-0.1	-0.9
COc1ccc(N2CCN(C(=O)c3ccc4c(c3)NC(=O)C(CSCc3ccc(C)cc3)N4)CC2)cc1 (stereo not given)	-1.6	3.1
Cc1ccc(-c2ccc3c(c2)S(=O)(=O)c2ccccc2C3=O)cc1	0.1	1.6
(listing goes on)
SMILES	Bfl-1 A1 inh	LANA-H2B inh
Cc1ccc2c(=O)n3c(nc2c1)C(Cc1ccc(O)cc1)NC(=O)c1ccc(Cl)cc1-3 (stereo not given)	0.2	-1.1
CC(=O)Oc1ccc(N2C(=O)C3C(C2=O)C2(C)C=CC3(C)O2)cc1 (stereo not given)	-0.5	4.9
C#CCOCCOCCOCCNc1nc(N2CCN(C(=O)CCCCCCCCCCNC(=O)[C@H](CCCCN)n3cc(C)nn3)CC2)nc(N2CCN(C(=O)CCCCCCCCCCNC(=O)[C@H](CCCN=C(N)N)n3cc(C[C@@H](C)CC)nn3)CC2)n1	?	-35.1
Cc1ccc(S(=O)(=O)Nc2c(Cl)c(Cl)c(O)c3ccccc23)cc1	-0.2	5.2
C#CCOCCOCCOCCNc1nc(N2CCN(C(=O)C([C@@H](C)CC)n3cc(C(N)CC(C)C)nn3)CC2)nc(N2CCN(C(=O)[C@H](CCCCN)n3cc(C(N)COC(=O)C(F)(F)F)nn3)CC2)n1 (stereo not given in full)	0.1	0.8
CC(C)[C@]1(c2ccccc2)ON(c2ccccc2C(F)(F)F)C1=O	-0.3	0.7
COc1cc(OC)cc(-n2c3nc4ccccc4nc3c3c(=O)n(CC4CCCO4)cnc32)c1 (stereo not given)	0.0	5.8
O=C(CCC1CCCNC1)c1ccccc1 (stereo not given)	0.2	0.3
Cc1ccc(C2C3=C(Nc4[nH]n(-c5ccccc5)c(=O)c42)c2ccccc2C3=O)cc1 (stereo not given)	1.6	6.8
N#Cc1c(Cl)nc(-c2cccnc2)nc1-c1ccccc1	0.6	-2.4
COc1ccc(CCNC(=O)c2cc(-c3ccco3)nc3ccccc23)cc1	0.4	5.9
O=S(=O)(c1ccccc1)N1CCCc2ccccc21	0.1	-2.1
Fc1cccc(/C=N/Nc2nc3ccccc3[nH]2)c1	0.3	0.8
O=C(O)c1cc(-c2cc(C(=O)O)c3ccccc3n2)nc2ccccc12	1.1	11.2
Clc1ccc(NCc2ccsc2)cc1	0.9	0.0
C#CCOCCOCCOCCNc1nc(N2CCN(C(=O)[C@H](Cc3ccc(O)cc3)n3cc([C@@H](N)C(C)CC)nn3)CC2)nc(N2CCN(C(=O)[C@H](Cc3cc4ccccc4[nH]3)n3cc([C@@H](N)Cc4ccc(O)cc4)nn3)CC2)n1 (stereo not given in full)	-2.1	-5.0
COC(C/C=C\C(=O)COCc1ccccc1)OC	0.9	1.1
O=C1c2ccccc2C(=O)C2OC12 (stereo not given)	0.7	1.8
COc1ccc(O[C@H]2C=C[C@@H](c3ccccc3)O[C@@H]2CO/N=C(\C)CCC(=O)OC[C@H]2O[C@H](c3ccccc3)C=C[C@@H]2Oc2ccc(OC)cc2)cc1	-1.2	4.5
O=C(CNc1c(Br)cc(Br)cc1Br)NN=C1CCCCC1	2.2	-3.5

Some of the compounds tested; rates above refer to the full screens.
